Screens (PubChem BioAssay)
Calb FLC = C. albicans growth modulation with fluconazole; growth inhibition, % (concentration not given with the values); C. albicans CaCi-2 (fluconazole-resistant clinical isolate) + fluconazole, Alamar Blue growth, 48 h; AID 1979; 300,000 compounds, 0.57% hits;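 active = most replicates above 75%; inconclusive = exactly half above 75%; inactive = most below 75%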;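 note: all wells also contain fluconazole at 8 µg/ml as a sub-toxic cotreatment; 0% = median of DMSO wells and 100% = median of geldanamycin control wells; wells of about 8 µL received 7.5 nL stock; the first replicate is given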
HNF4A DNA FP = change in binding of human HNF4 alpha to DNA; P41235; HNF4a-FITC DNA binding, fluorescence polarization, 1 h; activity change, % at 10 µM; 360,000 compounds, 0.3% hits; in the data active = activity change above about 30%, passing the limit was not always enough;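 note: controls were the assay level and a saturating level of protein; the project sought stronger binding though the title names inhibitors; some compounds called inactive have numbers as strong as hits; positive values seem to mean higher polarization but the record does not say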
Target sequence (P41235 whole entry, looked up): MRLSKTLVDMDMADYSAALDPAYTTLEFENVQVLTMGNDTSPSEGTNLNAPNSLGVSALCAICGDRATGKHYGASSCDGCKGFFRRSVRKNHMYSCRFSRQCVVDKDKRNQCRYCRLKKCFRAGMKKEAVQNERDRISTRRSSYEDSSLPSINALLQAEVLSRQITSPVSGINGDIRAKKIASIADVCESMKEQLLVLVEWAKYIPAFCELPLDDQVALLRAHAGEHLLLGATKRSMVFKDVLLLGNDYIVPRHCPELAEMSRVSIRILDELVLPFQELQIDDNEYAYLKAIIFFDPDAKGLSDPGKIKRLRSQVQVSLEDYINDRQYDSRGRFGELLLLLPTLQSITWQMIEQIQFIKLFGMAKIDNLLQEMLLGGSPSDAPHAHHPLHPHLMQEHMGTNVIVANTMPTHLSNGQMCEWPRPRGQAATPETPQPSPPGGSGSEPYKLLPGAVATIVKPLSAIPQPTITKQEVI
LANA-H2B inh = blocks KSHV LANA binding to histone H2A/H2B; Q9QR71; 320,000 compounds, 0.6% hits; inhibition, % (no concentration beside the values); cell-free LANA-H2A/H2B peptide, fluorescence polarization; in the data active = inhibition mostly above about 10%, no sharp cut-off; inactive = mostly below about 6.7%;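 note: stock transfer was 7.5 nL into about 10 µL; 0% = median of vehicle wells and 100% = median of positive control wells; one replicate is shown; the record names a cut of 25% in any replicate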
RanGTP-Imp inh = inhibitors of RanGTP-importin-beta interaction, primary screen, biochemical, FRET, CFP-Ran, YFP-importin-beta, homogeneous | cell-free CFP-Ran/YFP-importin-beta FRET ratio | inhibition, % (concentration not given with the values) | 300,000 compounds, 1.1% hits | AID 2216;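 active = most replicates above 15%; inconclusive = exactly half above 15%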;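 note: 0% = DMSO wells and 100% = Ran loaded with GDP instead of GTP; wells of about 40 µL received 100 nL stock; the first replicate is given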
ALR H2O2 inh = blocks human ALR sulfhydryl oxidase activity; purified ALR, DTT oxidation, H2O2 HRP-luminol luminescence; inhibition, % (test concentration not listed); 290,000 compounds, 3.8% hits; P55789;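 active = mean and each replicate at 75% or more; inconclusive = only one of the two met; inactive = neither met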;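 note: stock transfer was 7.5 nL into about 7.5 µL; 0% = neutral wells and 100% = wells with inactivated enzyme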
B2AR ag = human beta-2 adrenergic receptor agonism by FAP. response, % (test concentration not listed). Am2.2-beta2AR cells, FAP receptor internalization, flow cytometry; reference of the scale not given here. 340,000 compounds, 0.43% hits. P07550. AID 504454;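 active = response above a set limit, near 3 SD of response in nonfluorescent compounds, cut at about 42% in these data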;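 note: stock transfer was 100 nL into about 11 µL; a reference agonist was the positive control; negative values mostly stem from fluorescent compounds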
Target sequence (P07550 whole entry, looked up): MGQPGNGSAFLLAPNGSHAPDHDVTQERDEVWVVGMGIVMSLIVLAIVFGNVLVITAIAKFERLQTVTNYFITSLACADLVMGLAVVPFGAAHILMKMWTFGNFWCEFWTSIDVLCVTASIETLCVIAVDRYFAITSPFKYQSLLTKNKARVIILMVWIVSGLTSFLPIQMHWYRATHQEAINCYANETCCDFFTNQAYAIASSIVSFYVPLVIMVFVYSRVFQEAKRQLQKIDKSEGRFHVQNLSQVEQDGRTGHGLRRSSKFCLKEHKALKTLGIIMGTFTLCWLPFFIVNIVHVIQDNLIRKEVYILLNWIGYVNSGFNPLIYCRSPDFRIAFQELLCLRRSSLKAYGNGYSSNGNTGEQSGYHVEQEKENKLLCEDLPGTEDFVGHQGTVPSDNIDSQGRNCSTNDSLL
Vif TR-FRET = HIV-1 Vif–A3G interaction blockers – biochemical, TR-FRET, GST-Vif 1-94, biotin-A3G peptide, dose response retest, primary screen (AID 1117319). TR-FRET GST-Vif / biotin-A3G peptide binding; higher % means a stronger effect; test concentration not given here; strong numbers were not always called active. inhibition, %; hits with a dose series show IC50 in µM. 260,000 compounds, 0.57% hits;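 active = above the screen mean plus three standard deviations and confirmed in dose response; inconclusive = results disagree or hit not tested in dose response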;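 note: Vif residues 1-94 fused to GST binding biotinylated APOBEC3G peptide 110-148; 0% = full assay without inhibitor and 100% = GST in place of GST-Vif; retest series ran down from 100 µM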
Active calls of the source: *; u = inconclusive; x = no result given; + = active, no number; & = joins results of further samples.

Structure	Calb FLC	HNF4A DNA FP	LANA-H2B inh	RanGTP-Imp inh	ALR H2O2 inh	B2AR ag	Vif TR-FRET
CCn1cc(C(=O)NCc2cccc(C(F)(F)F)c2)c(=O)c2ccc(C)nc21	3	0.1	1.1	-0.7	-5	-3	-8%
COc1ccc(/C=C/C(=O)OC2CCCCC2CN(C)C)cc1 (stereo not given)	-5	-1.3	1.0	-0.5	0	11	20%
O=C(NCc1ccc2c(c1)OCO2)c1cc2c(s1)CS(=O)(=O)C2	13	2.0	-1.6	u	x	-2	21%
OC12CCCCC1C(c1ccc3c(c1)OCO3)N(Cc1ccccc1F)CC2 (stereo not given)	-42	0.1	1.2	-7.3	22	-4	3%
Cc1ccc(C(=O)N/C(=C\c2cccs2)c2nc3ccccc3[nH]2)cc1	-1	-0.7	1.2	-3.8	-10	-1	x
O=C(CCCn1cnc([N+](=O)[O-])n1)Nc1ccc(Cl)c(Cl)c1	19	-1.9	2.1	0.9	-23	5	6%
Cc1ccc(C(C(=O)NCCc2ccccc2)N(C(=O)c2csnn2)C2CC2)cc1 (stereo not given)	0	-1.5	-6.5	4.2	-1	-1	4%
CC(C)C(NC(=O)c1ccc(C(C)(C)C)cc1)C(=O)Nc1cccc(S(N)(=O)=O)c1 (stereo not given)	8	1.7	-1.3	2.9	-5	-1	11%
O=C(NNc1c2ccccc2nc2ccccc12)c1ccc(O)cc1	5	9.3	2.3	36*	99*	23	x
Cc1cc2cc3c(cc2nc1SCC(=O)O)CCC3	-2	-1.4	-0.9	-1.9	98*	6	-15%
C/C=C/C(=O)N1CC2(CC(c3cccc(NC(=O)CC)c3)=NO2)C[C@H]1C(N)=O (stereo not given in full)	-7	6.3	1.6	2.4	-13	-8	x
CC1CCCC(NC(=O)c2nn(C)c3c2CS(=O)(=O)c2ccccc2-3)C1C (stereo not given)	17	1.9	1.8	4.0	-1	3	x
Cc1ccc(S(=O)(=O)N2CCN(C(=O)CC3CCCC3)CC2)cc1	11	-0.9	0.3	7.0	3	-4	-5%
O=C(O)CN1CCNCCN(CC(=O)O)CCNCC1	x	3.6	x	x	x	0	-8%
Cc1csc(C2=C(O)CN(c3ccc4c(c3)OCCOCCOCCOCCO4)C2=N)n1	x	2.3	x	x	x	6	u

4 successive records out of the list so far:
Structure	Calb FLC	HNF4A DNA FP	LANA-H2B inh	RanGTP-Imp inh	ALR H2O2 inh	B2AR ag	Vif TR-FRET
CC1CCCC(NC(=O)c2nn(C)c3c2CS(=O)(=O)c2ccccc2-3)C1C (stereo not given)	17	1.9	1.8	4.0	-1	3	x
Cc1ccc(S(=O)(=O)N2CCN(C(=O)CC3CCCC3)CC2)cc1	11	-0.9	0.3	7.0	3	-4	-5%
O=C(O)CN1CCNCCN(CC(=O)O)CCNCC1	x	3.6	x	x	x	0	-8%
Cc1csc(C2=C(O)CN(c3ccc4c(c3)OCCOCCOCCOCCO4)C2=N)n1	x	2.3	x	x	x	6	u

Quoted from the listing.
Entry of CC1CCCC(NC(=O)c2nn(C)c3c2CS(=O)(=O)c2ccccc2-3)C1C (stereo not given) in ALR H2O2 inh: -1
Entry of O=C(CCCn1cnc([N+](=O)[O-])n1)Nc1ccc(Cl)c(Cl)c1 in ALR H2O2 inh: -23

Next section:
Structure	Calb FLC	HNF4A DNA FP	LANA-H2B inh	RanGTP-Imp inh	ALR H2O2 inh	B2AR ag	Vif TR-FRET
O=C(Nc1ccc(-c2cnco2)cc1)c1ccc(Cl)cc1	-11	-0.7	1.1	0.5	-8	4	x
c1ccc(-c2cn(C[C@H]3CC[C@H](Cn4cc(-c5ccccn5)nn4)O3)nn2)nc1	-3	-4.8	-0.4	1.1	x	-1	x
Cc1cc(Cl)ccc1NC(=S)NCc1ccc(F)cc1	-123	-1.3	-3.8	-1.9	-2	-21	x
CCOc1ccc(CCNC(=O)Cn2ncn3nc(-c4ccc(OC)cc4)cc3c2=O)cc1	-2	-1.2	0.9	-1.2	-5	3	x
Cc1ccc(NC(=O)c2ccc(=O)n(CC(=O)Nc3c(C)cc(C)cc3C)n2)cc1	9	-2.3	0.3	-1.6	-2	-71	4%
COc1ccccc1NC(=O)Nc1nnc(C(C)c2ccccc2)s1 (stereo not given)	-23	-0.3	3.6	-1.7	-9	2	12%
CN1C/C(=C/c2ccncc2)C(=O)/C(=C/c2ccncc2)C1	9	-0.3	4.5	4.7	-35	7	x
CCn1cnc2cc(NCc3ccc(OC)cc3)ccc21	-18	-3.3	-3.0	9.9	1	1	5%
Cc1ccc2nc(-c3ccc(NS(C)(=O)=O)cc3)cc(-c3ccccc3)c2c1	32	-0.6	1.4	1.8	-4	4	-4%
CCOCCCNC(=O)C1(O)c2cc(Br)ccc2NC(=O)N1c1ccc(CC)cc1 (stereo not given)	-3	-2.0	2.3	0.4	-15	-8	x
COc1ccc(Br)cc1CN(C)CC(=O)Nc1cc(Cl)ccc1Cl	1	-2.0	0.6	5.1	15	-2	x
Fc1ccc(/C=N/n2c(C3CCCCC3)n[nH]c2=S)cc1	36	0.6	8.5	0.0	3	1	1%
COc1ccc(-c2csc(/C(C#N)=C\c3cccc([N+](=O)[O-])c3)n2)cc1	-17	x	-2.4	-2.7	-1	x	x
C=CCc1c(Cl)nc(C)nc1NCc1ccccc1	4	-0.8	-2.7	u	x	-7	-2%
CC1=NN(C(=S)Nc2ccccc2)C(c2ccccc2)C1 (stereo not given)	2	-2.6	-1.1	1.6	4	-2	5%
O=C(N/N=C/C(Cl)=C\c1ccccc1)c1cnccn1	-7	0.7	-6.4	-1.1	-2	14	u
CC(OC(=O)CCN=C1NS(=O)(=O)c2ccccc21)C(=O)Nc1ccc(F)cc1 (stereo not given)	-10	0.8	-3.5	0.9	2	3	-3%
CC(=O)Oc1cccc(NC(=O)c2cccc(C(=O)Nc3cccc(OC(C)=O)c3)c2)c1	-2	1.4	0.7	-2.6	-7	11	x
CC1(C)C[C@@H](O)CC2(C1)C[C@]1(C)CC(O)[C@H]2C(C)(C)C1 (stereo not given in full)	9	9.0	-3.3	0.0	4	-14	x
CN(C)c1nnnn1-c1ccc(Cl)cc1	10	5.8	-3.8	-0.3	-3	19	-7%
Cc1ccc(C2=NN(S(=O)(=O)c3ccccc3)C(c3ccccc3O)C2)cc1 (stereo not given)	-9	80*	x	-3.0	x	-9	x
COCc1nnc(NC(=O)CCCOc2ccccc2)s1	-11	0.6	4.1	7.9	0	-9	6%
NC(=O)C1CCCN(C(=O)c2ccc3nc(Cc4cccc(Cl)c4)oc3c2)C1 (stereo not given)	-4	-0.4	1.0	-1.9	-7	2	x
COc1ccc(S(=O)(=O)NNC(=O)c2cc3c4ccccc4n(C)c3s2)cc1	-6	5.3	6.1	-4.1	2	4	-22%
Cn1ncc(Cl)c1C(=O)N/N=C/c1cccc(OC2CSC2)c1	-13	2.1	-6.1	1.3	-1	-25	x
CCCCS(=O)(=O)/C=C/[C@H]1[C@H](S(=O)(=O)CCCC)[C@H]2C=C[C@@H]1C2	4	-3.7	0.6	-2.4	-17	5	3%
COCCNC(=S)Nc1cc2oc3ccccc3c2cc1OC	-11	1.0	-5.4	2.3	-15	3	2%
Oc1c(C(c2ccc(F)cc2)N2CCc3ccccc3C2)sc2ncnn12 (stereo not given)	0	-0.1	-8.0	-1.0	4	-8	10%
CCc1nc(-c2cc3ccc(C)cc3[nH]c2=O)no1	5	-2.2	-1.8	1.0	-9	-19	u
CCOC(=O)N1CCN(c2c(NCCN(C)Cc3ccccc3)c(=O)c2=O)CC1	x	-0.9	0.8	x	-21	-7	17%
COc1ccccc1N1CCN(C(=O)c2cc3c(s2)-c2ccccc2OC3)CC1	1	3.5	-3.1	-1.0	10	25	x
N#C/C(=N/Nc1ccc([N+](=O)[O-])cc1)C(=N)N1CCCCC1	-15	14	x	-5.2	x	8	x
Cc1ccc(/C=N/Nc2nc3ccccc3[nH]2)s1	u	-3.4	-8.2	1.6	33	6	21%
CCOc1ccc(CN(C)C(=O)CNC(=O)c2cc(OC)c(OC)c(OC)c2)cc1	3	-0.2	-3.4	-13	0	-6	1%
COc1ccc(OC)c(N(CC(=O)NCCSCc2ccco2)S(=O)(=O)c2ccc(OC)c(OC)c2)c1	0	-1.2	2.3	4.3	-1	10	x
O=C(O)c1ccc(COc2ccc(CO)cc2Cl)cc1	4	0.6	-1.3	5.2	-1	3	4%
COc1ccc(-c2nnc(SCC(=O)NC3CC3)o2)c(OC)c1	x	2.6	x	x	x	-4	0%
C=CCn1c(=O)c2ccccc2n2c(SCC(=O)NCc3cccs3)nnc12	-7	-2.7	-7.0	-1.0	1	-8	2%
COc1ccc(CCNC(=O)C2CC3Cn4c(nc5cc(Cl)c(Cl)cc54)C3N2C)cc1 (stereo not given)	-4	0.1	-4.0	-3.2	x	-7	-12%
Cc1ccc([N+](=O)[O-])cc1N/C=C1\CCCCC1=O	16	1.9	3.1	0.7	-7	-5	3%
CC(=O)Nc1ccc(NC(=O)c2cc(=O)c3cc(C)cc(C)c3o2)cc1	-5	0.1	0.1	1.4	-5	-9	0%
COc1ccccc1Nc1nc(N)nc(CN2CCc3ccccc3C2)n1	-9	-1.0	0.2	3.6	-11	5	-1%
CCOC(=O)c1ccc(NC(=S)NC(=O)COc2ccccc2)cc1	-4	1.1	-1.7	-3.8	-9	-132	-12%
CCOc1ccc(N(C)S(=O)(=O)c2ccc(-c3ccc(=O)[nH]n3)s2)cc1	-3	17	15*	-2.1	-7	8	x
CCCCCCCCCCCCCCCC[N+](C)(C)CCN(Cc1ccc(OC)cc1)c1ncccn1	x	26	-12	x	19	35	x
COc1cc(OC)cc(C(=O)NCCC(c2ccccc2)c2ccccc2)c1	-9	-0.5	-0.9	-1.0	-2	-1	0%
C=CCn1c(SCC(=O)NC(=O)NC2CCCC2)nnc1C1CCCCC1	-17	-0.3	-1.4	-2.5	x	-5	u
Cc1ccc(C)c(C(=O)N2CCN(c3ncccn3)CC2)c1	4	1.8	1.6	-0.3	5	13	3%
O=C(N/N=C/c1ccccc1O)c1cccc2ccccc12	-21	3.5	4.5	1.8	12	-1	-4%
c1ccc2c(c1)cnc1ccccc12	-4&-2	20&-0.6	5.0&1.4	2.2&7.2	-11&5	-3&-6	x
CC(C)OCCCNC(=O)c1ccc2c(c1)NC(=O)c1ccccc1S2	13	0.8	0.5	-2.3	-4	-4	-7%
Cc1ccc(N2CC(C(=O)N3CCOCC3)CC2=O)cc1C (stereo not given)	4	0.5	-2.6	5.9	-9	0	x
O=C(CCN1CCN(Cc2ccccc2)CC1)NNC(=O)Nc1cccc([N+](=O)[O-])c1	-17	-0.9	16*	5.2	-15	-1	-5%
CC1(N2CCCCC2)CC2(O)C(=[N+]1[O-])CCC/C2=N\O (stereo not given)	-8	-4.9	-2.2	5.2	-48	7	22%
COc1ccc(C2c3ccc4ccccc4c3Oc3ncn(CCCO)c(=N)c32)cc1OC (stereo not given)	51	-0.5	4.3	2.2	-22	-1	-3%
COc1ccc(/C=C/C(=O)Nc2cc(S(=O)(=O)N3CCOCC3)ccc2C)cc1OC	-6	0.0	+	2.1	-1	1	17%
